# CapD inh: inhibitors of Bacillus anthracis CapD enzyme | z-score (test concentration not listed) | purified CapD enzyme, fluorescence intensity read-out; active compounds read low; some hits fall short of the stated cut | AID 492967 | actives 0.23% (n = 140,000);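 active = z-score under -4 in either of two replicates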;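 also: stock transfer was 100 nL into about 40 µL; score is relative to mean and spread of the plate; one replicate is shown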
# AID504770: growth inhibitors of E. coli YBA685 in a screen for V. cholerae RctB (chromosome II replication) inhibitors; E. coli YBA685 rctB-dependent plasmid, OD600 growth, 3 h; active compounds read low; z-score (test concentration not listed); actives 0.27% (n = 130,000); AID 504770;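 active = z-score under -2 on both plates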;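 also: wells of about 30 µL received 100 nL stock; score is relative to mean and SD of the test wells; the first replicate is given; strong numbers were not always called active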
# Numbers without * were called inactive; . = not tested or not shown. Compounds as they come; 0.37% or so of the library scored in one or more.
# The first 7 records, to show the layout:
SMILES,CapD inh,AID504770
CCOc1ccccc1NC(=O)CN1CCC(NC(=O)Nc2ccccc2)CC1,.,-0.6
CCCn1c(SCC(=O)C(C)(C)C)nc2ccccc21,0.325,-0.25
CCOC(=O)CC(c1ccc(N)cc1)n1c(C)ccc1C (stereo not given),-0.46,-1.05
Cc1ccc(-c2nn[nH]n2)cc1,0.305,1.4
CC1CCCCN1C(=O)CN1C(=O)CC(c2ccccc2)=Nc2ccccc21 (stereo not given),.,-0.7
O=C(COc1ncn(-c2ccccc2)n1)N/N=C/c1cc(OCc2ccccc2)cc(OCc2ccccc2)c1,-1.07,.
CCCC(=O)N1N=C(c2ccc(C)cc2)OC1c1ccc(OC)cc1 (stereo not given),0.035,0.1

# The list itself, previewed entries included:
SMILES,CapD inh,AID504770
CCOc1ccccc1NC(=O)CN1CCC(NC(=O)Nc2ccccc2)CC1,.,-0.6
CCCn1c(SCC(=O)C(C)(C)C)nc2ccccc21,0.325,-0.25
CCOC(=O)CC(c1ccc(N)cc1)n1c(C)ccc1C (stereo not given),-0.46,-1.05
Cc1ccc(-c2nn[nH]n2)cc1,0.305,1.4
CC1CCCCN1C(=O)CN1C(=O)CC(c2ccccc2)=Nc2ccccc21 (stereo not given),.,-0.7
O=C(COc1ncn(-c2ccccc2)n1)N/N=C/c1cc(OCc2ccccc2)cc(OCc2ccccc2)c1,-1.07,.
CCCC(=O)N1N=C(c2ccc(C)cc2)OC1c1ccc(OC)cc1 (stereo not given),0.035,0.1
Cc1c(C(=O)Nc2ccccc2)csc1-c1ccccc1,-0.035,1.45
O=C(OCC(=O)N1CCCCC1)c1ccccc1Cc1ccccc1,-0.615,-0.45
CN1C(=O)CSC1=Nc1ccc(F)cc1,.,-0.65

# Some values from the entries so far:
# In CapD inh, O=C(OCC(=O)N1CCCCC1)c1ccccc1Cc1ccccc1 is entered as -0.615
# In CapD inh, O=C(COc1ncn(-c2ccccc2)n1)N/N=C/c1cc(OCc2ccccc2)cc(OCc2ccccc2)c1 is entered as -1.07
# In AID504770, CCCC(=O)N1N=C(c2ccc(C)cc2)OC1c1ccc(OC)cc1 (stereo not given) is entered as 0.1
# In CapD inh, Cc1c(C(=O)Nc2ccccc2)csc1-c1ccccc1 is entered as -0.035
# In AID504770, CN1C(=O)CSC1=Nc1ccc(F)cc1 is entered as -0.65

# The main list resumes; the 2 compounds before the break are reprinted first.
SMILES,CapD inh,AID504770
O=C(OCC(=O)N1CCCCC1)c1ccccc1Cc1ccccc1,-0.615,-0.45
CN1C(=O)CSC1=Nc1ccc(F)cc1,.,-0.65
COC(=O)CON1C(=O)c2ccccc2C1=O,0.68,0.25
N#Cc1ccc(-c2csc(COc3ccc4nonc4c3)n2)cc1,-0.3,-0.15
Cc1ccc2c(c1)-c1c(ssc1=S)C(C)(C)N2C(=O)CSc1nc(C)cc(C)n1,-0.87,.
CC(NC(=O)OC(C)(C)C)c1ccccc1 (stereo not given),-0.605,0
COc1cccc(-c2cc(C(=O)Nc3ccc4c(c3)OCCO4)c3ccccc3n2)c1,0.285,.
CN(CC(O)Cn1c2ccccc2c2ccccc21)S(C)(=O)=O (stereo not given),13.9,0.8
COc1ccc(NC(=O)c2sc3nc4c(c(-c5cccs5)c3c2N)CCCC4)cc1,-0.13,.
O=C(O)C1CSC(C2CCCCC2)N1 (stereo not given),-1.33,0.4
CC(=O)n1c2ccccc2c2nc3ccccc3nc21,3.11,.
CCC(=O)N(Cc1ccc(S(C)(=O)=O)cc1)C1CCN(Cc2ccccc2)CC1,-0.225,.
Clc1ccc(C2Nc3ccccc3C(c3ccccc3)(c3ccccc3)O2)c(Cl)c1 (stereo not given),0.13,.
CCc1c(C)c(C#N)c2nc3ccccc3n2c1NC1CCCC1,.,-0.65
Cc1ccc(S(=O)(=O)NC(=O)N2CCN(c3nc(-c4ccc(Cl)cc4)c(S(C)(=O)=O)cc3C#N)CC2)cc1,-0.585,.
CC(C)(C(=O)Nc1ccccc1)S(=O)(=O)c1ccc(C(F)(F)F)cn1,-0.835,-0.75
Cc1ccc(-c2nnc(NC3CCCC3)s2)cc1,.,0
CC1(C)Cc2[nH]c(=O)c(C#N)cc2CO1,44.2,.
CC1(C)NC(=O)N(CC(O)CN2C(=O)NC(C)(C)C2=O)C1=O,.,-0.85
Cc1ccc2c(c1)-c1c(ssc1=S)C(C)(C)N2C(=O)Cc1ccccc1,-0.95,.
CC(C)Nc1nccc(C(F)(F)F)n1,-0.055,0.55
CCCc1cnc(N2CCCN(C(=S)Nc3ccc(C)cc3C)CC2)nc1,1.63,.

# Three entries from above, reformatted.
# Fields – CapD inh | AID504770
Clc1ccc(C2Nc3ccccc3C(c3ccccc3)(c3ccccc3)O2)c(Cl)c1 (stereo not given)
  0.13 | .
CC(C)(C(=O)Nc1ccccc1)S(=O)(=O)c1ccc(C(F)(F)F)cn1
  -0.835 | -0.75
CCc1c(C)c(C#N)c2nc3ccccc3n2c1NC1CCCC1
  . | -0.65

# Next structures:
SMILES,CapD inh,AID504770
COc1ccc(CCNC(=O)CSc2nc3ccccc3nc2Cc2ccc(F)cc2)cc1OC,-0.57,.
CN(C)S(=O)(=O)c1cccc(COc2ccc(C#N)cc2)c1,.,-0.05
CCOC(=O)C1=C(C)N(C)C(=S)N(C)C1c1ccc(OC)cc1 (stereo not given),.,1.8
O=C(C1CCCN1S(=O)(=O)c1ccc(Cl)c(Cl)c1)N1CCOCC1 (stereo not given),0.275,0.15
Cc1ccc(NC(=S)N(Cc2cccc(C)c2)c2ccccn2)cc1,0.25,-0.65
CC(=O)Nc1ccc(S(=O)(=O)N(CCCN2CCOCC2)Cc2cccs2)cc1,-0.16,-0.75
CCOC(=O)CCOn1ccc2ccc(S(C)(=O)=O)cc21,31,.
Cc1cccc(-n2c(=O)c3c4c(sc3n3c(C)nnc23)CCCC4)c1,0.305,0.7
O=C(c1ccco1)N1CCSCC1,0.94,.
CC1=C(C(=O)OCCc2ccccc2)C(c2cccc(OCc3ccccc3)c2)NC(=O)N1 (stereo not given),-0.255,.
O=C(/C=C/c1ccco1)NNC(=O)OCC1CCCN1Cc1ccccc1 (stereo not given),-1.67,.
COc1ccc(C(=O)n2c(=S)nc3cc(C)ccn32)cc1,3.9,1.95
O=C(NCc1ccc2[nH]c3c(c2c1)CCCC3)c1ccc(F)c(F)c1,67.2,-0.05
CCOC(=O)c1ccc(CNS(=O)(=O)c2ccc(S(=O)(=O)N3CCOCC3)cc2)o1,0.525,0
CN(C)C(=S)Nc1ccc(Cc2ccncc2)cc1,0.015,-0.3
CC1C(=O)OC(c2ccccc2)C(C)(C)C1=O (stereo not given),.,1.95
CN(C)S(=O)(=O)c1ccc(=O)n(CC(=O)N2CC(=O)Nc3ccccc32)c1,.,-2.35
CC(=O)O[C@H]1CC[C@@]2(C)C(=CCC3C4CCC(C(C)CCCC(C)C)[C@@]4(C)CCC32)C1 (stereo not given in full),-0.9,.
COc1cccc(NCc2nnc(SCC(=O)c3ccc[nH]3)n2C2CCCCC2)c1,.,-0.9
CCCC(=O)N(CC)c1ccccc1C,0.1,0.15
O=C(c1ccc2cc[nH]c2c1)N1CCN(S(=O)(=O)c2cccc(C(F)(F)F)c2)CC1,1,.
CC12CCC(=O)N1C(C(=O)OCc1nc3ccccc3c(=O)n1CC#N)CS2 (stereo not given),.,0.4
COc1cccc(CN2CCC(N3CCCCC3)CC2)c1,-0.01,2.1
COC(=O)CCN1C(=O)/C(=C/c2ccc(OCc3ccc(Cl)cc3)c(OC)c2)SC1=S,-0.205,.
CCCC1(C)SC(NC(C)=O)=NN1C(C)=O (stereo not given),-0.15,-0.75
O=C(O)/C=C/C(=O)Nc1ccc(-c2cnco2)cc1,-0.39,-0.45
COc1ccc2oc(=O)c(C(=O)NCc3cccnc3)cc2c1,.,-0.35
CC(C)(C)c1c(O)[nH]c(=S)[nH]c1=O,0.045,-0.4
Clc1cccc(-n2nnnc2C2(N3CCOCC3)CCCC2)c1,-0.32,.
CCN1CCN(C(c2cccs2)C(C)NC(=O)c2c(F)cccc2F)CC1 (stereo not given),0.34,0.55
O=C(O)CC(C(=O)NCc1ccccc1)C1=CCCCC1 (stereo not given),1.06,0.5
O=C1CN(c2ccc(OC(F)(F)F)cc2)C(=O)CN1Cc1ccc2c(c1)OCO2,0.715,0
CSc1cccc2cccnc12,99.9,-0.5
Nc1nc(SCc2ccc(C(=O)NCCO)cc2)nc2sc3c(c12)CCCC3,0.54,1.75
N#Cc1c2n(c3c(=O)n(CC(=O)c4ccc(Br)cc4)cnc13)CCCC2,-0.495,.
C[C@H](NS(=O)(=O)c1cccc2nsnc12)C(=O)OCc1ccccc1,.,-0.85
CC(C)CC(=O)Nc1ccccc1C(F)(F)F,0.315,-0.75
O=C1CN(C(=O)c2ccccc2)C(c2cccc([N+](=O)[O-])c2)N1O (stereo not given),5.7,.
O=C1OC2(O)c3ccccc3C(=O)N2c2ccccc21 (stereo not given),1.16,0.6
CCCn1c(Nc2nc3ccccc3n2C)nc2ccccc21,30.1,1.4
CCN(c1ccccc1)c1cc(N2CCCCC2)c2nonc2c1[N+](=O)[O-],-0.405,.
COC(=O)c1ccc(C(=O)OC)c(NC(=O)c2ccccc2)c1,20.8,0.2
Nc1ccccc1S(=O)(=O)NCC(=O)O,-0.715,2.4
CCN(CC)CCn1c(=S)[nH]c2cc(C(=O)N3CCC(O)(c4cccc(C(F)(F)F)c4)CC3)ccc2c1=O,0.81,.
Cn1cc(NC(=O)Nc2ccccc2F)c2ccccc2c1=O,35.8,0.55
O=C1OCCC1Sc1nnc(-c2cccs2)o1 (stereo not given),.,-0.15
CC(=O)Nc1cccc(-c2cn3ccccc3n2)c1,48.1,0.9
Cc1cc(C)n(C(=O)CCCC(=O)n2nc(C)cc2C)n1,0.03,0.15
Cc1ccsc1C1Nc2ccc3ncccc3c2C2=C1C(=O)CCC2 (stereo not given),2.88,.
O=S(=O)(c1ccc(Cl)cc1)c1ccc(NCCO)cc1,1.19,1.1
# Going on with the list:
SMILES,CapD inh,AID504770
O=C(CSc1nc2ccccc2c2nc3ccccc3n12)NCCc1ccccc1,-1.42,-0.6
CCOCC(=O)OCc1cc(=O)oc2cc(C)c(Cl)cc12,.,-1.05
CSc1cccc(N2C(=O)C3CC=C(C)CC3C2=O)c1 (stereo not given),-0.38,-0.75
CCOC(=O)c1c(C)oc2nc[nH]c(=O)c12,.,-0.55
CCN(CC)c1ccc(NS(=O)(=O)c2ccc(C)cc2)cc1,2.3,-0.55
COc1ccc(-c2ocnc2C(N)=O)cc1,45.9,-0.9
CC(=O)n1c2ccccc2c2nc(Nc3ccccc3)sc21,0.235,0.1
O=c1c(Cl)c(O)cnn1C1CCCCC1,-0.16,-0.9
C=CCNC(=O)CN1CCN(C)CC1,.,-0.7
Cc1nnc(C)n1/N=C/C(Cl)=C/c1ccccc1,-1.32,1.9
CCOC(=O)COc1cccc2c(C)cc(=O)oc12,53.2,.
CC(=O)c1ccccc1Nc1ccc2c(C(F)(F)F)cc(C(F)(F)F)nc2n1,-0.57,.
CCN1CCN(C(=O)c2cc3c(=O)n(Cc4ccc(OC)cc4)ccc3nc2C)CC1,7.92,0.4
C=CCOC(=O)c1c(C)oc2ccc(NS(=O)(=O)c3ccc(C)cc3)cc12,-0.06,.
O=C(CSc1ncc(C(F)(F)F)cc1Cl)NCCN1C(=O)CSC1=O,.,1.8
COc1ccc(C(=O)NCCSc2nnnn2-c2ccccc2)cc1,0.535,-0.95
CNC1=CC(=O)CC(c2ccccc2)C1 (stereo not given),.,-0.4
O=C(NCc1nc(-c2cccnc2)n[nH]1)Nc1ccc(Cl)cc1C(F)(F)F,.,-0.8
Cc1ccccc1-c1nc(SCc2ccc(F)cc2)c(C#N)c2c1CCC2,1.17,.
C=CCNS(=O)(=O)CC12CCC(CC1=O)C2(C)C (stereo not given),-0.17,-0.65
Cc1ccc2[nH]c(=O)c(CN(Cc3ccccc3)C(=O)N(C)C)cc2c1,.,-0.35
CCc1ccccc1-n1c(SCC(=O)Nc2ccc(OC)cc2OC)nc2n[nH]c(C)c2c1=N,-0.37,.
Cc1ccc(S(=O)(=O)NC(=O)Nc2ccc(C(F)(F)F)cc2Cl)cc1,-0.45,.
Cc1ccc(F)cc1NC(=O)[C@H](C)N1C(=O)C2CC=CCC2C1=O (stereo not given in full),.,2.4
COc1ccc2[nH]c(=O)c(C(c3nnnn3Cc3ccccc3)N3CCc4ccccc43)cc2c1 (stereo not given),.,-0.2
Cc1cccc(C)c1OCC(=O)Nn1c(=O)[nH]c2ccccc2c1=O,5.48,-0.85
O=C(NC1CCCCC1)C12CC3CC(CC(Cl)(C3)C1)C2,-0.68,-1
N#CCOc1ccc(-c2ccccc2)cc1,0.075,-1.45
Cc1ccc(S(=O)(=O)CC2CSc3nc(N)cc(=O)n32)cc1 (stereo not given),-0.335,-0.25
O=C(CCSc1ccccc1)NCCc1ccccc1,0.03,-1.05
O=C(OCC(=O)N1CCC(Cc2ccccc2)CC1)c1ccccc1,-0.36,-0.2
CC(C)N(C(=O)CO[C@@H]1[C@H]2OC(C)(C)O[C@H]2O[C@@H]1C1COC(C)(C)O1)c1ccccc1 (stereo not given in full),0.255,.
COC(=O)CCCOc1ccc(-c2nccc(-c3ccc(F)cc3)n2)cc1,1.19,.
CCOC(=O)c1c(NC(=O)c2cc3cc(Br)ccc3oc2=O)sc2c1CCC2,0.075,.
CC1(C)OC2C(CO)OC(n3ncc(=O)[nH]c3=O)C2O1 (stereo not given),.,-1.1
Cn1c(SCC(=O)Nc2ccccc2)nc2c(c1=O)SCC2,-0.81,0.9
Cc1nc(N)oc1C,.,-0.15
COc1ccc(/C=C2/SC(=O)N(CCC(=O)Nc3ccccc3Br)C2=O)cc1,0.17,.
COC(=O)c1c(-c2ccccc2)csc1NC(=O)CSc1nnc2sc3ccccc3n12,-0.745,.
O=C(COc1ccc2oc3c(c2c1)CCCC3)Oc1ccc(-c2nnco2)cc1,.,-0.15
CC(=O)Nc1ccc(F)cc1F,-0.28,.
COc1ccc(CN2C(=O)C3C(c4ccc(Cl)cc4)OC4(C(=O)c5ccccc5C4=O)C3C2=O)cc1 (stereo not given),-0.88,.

# Assay outcomes: PubChem BioAssay, ICCB-Longwood Screening Facility, Harvard Medical School
